# Screening results as filed in PubChem BioAssay.
# Cruzain inh noDet = cruzain (T. cruzi) inhibition without detergent | P25779 | purified cruzain, Z-FR-AMC fluorescence, no detergent | Potency, µM, without a hit: max response, negative = inhibition, hits mostly inhibitors | 200,000 compounds, 2.3% hits | AID 1476;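 note: plate controls were enzyme without inhibitor for no effect and buffer without enzyme for full effect; nearly all actives have a fitted effect of over 40% in size; top concentration of the series not given in the record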
# Target sequence (P25779 123-467 limits assumed): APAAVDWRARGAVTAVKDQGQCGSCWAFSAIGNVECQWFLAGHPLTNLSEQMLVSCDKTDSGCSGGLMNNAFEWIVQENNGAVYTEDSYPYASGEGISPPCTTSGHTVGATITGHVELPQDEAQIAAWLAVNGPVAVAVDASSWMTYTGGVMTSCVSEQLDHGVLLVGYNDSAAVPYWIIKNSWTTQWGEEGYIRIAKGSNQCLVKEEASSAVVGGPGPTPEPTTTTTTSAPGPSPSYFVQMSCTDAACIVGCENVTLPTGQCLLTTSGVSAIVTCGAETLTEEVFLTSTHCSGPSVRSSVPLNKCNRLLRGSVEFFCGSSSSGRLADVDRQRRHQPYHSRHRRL
#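 Detergent-free condition (0.00005% Triton X-100) in acetate buffer pH 5.5 with DTT. 1.5 nM enzyme and compound were pre-mixed 15 min, then 2 uM Z-FR-AMC substrate added; reaction progress from fluorescence change between first and third reads (60 s).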
# NS1 function inh = inhibitors of influenza NS1 protein function; S. cerevisiae slowed by influenza A NS1, growth recovery by OD600; Potency, µM (doses to about 46.1 µM), for inactives: at the highest dose activity, positive = more growth; 270,000 compounds, 0.4% hits; AID 2326; active means well fitted rising curve with a large enough effect; inconclusive means small, poorly fitted or top-dose-only effect; inactive means no such curve, though single readings can be large or run the other way; note: nearly all actives have a fitted effect of over 50% in size
#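 Recovery from NS1-induced slow growth read by OD600 in budding yeast switched to galactose assay medium (pH 6.0, -URA) at 1:100 dilution. Compound 23 nl per well; the matching strain lacking NS1 serves as control.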
# Marburg entry inh = blocks Marburg virus binding to or entry into cells | Potency, µM (doses to about 37.8 µM), for the others: at the highest dose activity change, negative = inhibition, most hits filed as inhibitors | Marburg virus pseudotyped entry inhibition, cell reporter; control for the full effect not named in the record; about a third of the inactives were read at about 46 µM | 300,000 compounds, 1.8% hits; active = well fitted inhibition curve with a large enough effect; inconclusive = small, poorly fitted or top-dose-only effect, or effect the other way; inactive = flat fitted curve, though single readings scatter; tested in HEK293 cells; about a fifth of its hits are not listed in these tables; note: % is set by controls: 0 for no effect and ±100 for the full control effect; luciferase read-out
# Cruzain Triton = cruzain (T. cruzi) inhibition with detergent. P25779. purified cruzain, Z-FR-AMC fluorescence, 0.01% Triton. Potency, µM, without a hit: max response, negative = inhibition, most hits filed as inhibitors. 200,000 compounds, 0.43% hits;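 note: plate controls were neutral wells for no effect and buffer without enzyme for full effect; nearly all actives have a fitted effect of over 40% in size; top concentration of the series not given in the record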
#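 Enzyme 1.5 nM, Z-FR-AMC 2 uM, NaOAc 100 mM pH 5.5, DTT 5 mM, Triton X-100 0.01%; 15 min RT compound preincubation; kinetic ex360/em450, 60 s delta.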
# RE007 growth inh = less growth of the S. pombe RE007 Vpr strain | Potency, µM (doses to about 92.2 µM), for the others: at the top dose activity change, negative = less growth | S. pombe RE007 Vpr strain, BacTiter-Glo ATP luminescence, 24 h; control for the full effect not named in the record | AID 651644 | 360,000 compounds, 0.21% hits; active = well fitted falling curve with a large enough effect; inconclusive = small, poorly fitted or top-dose-only effect; inactive = no such curve, though single readings can be large or run the other way;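 note: % is set by controls: 0 for no effect and ±100 for the full control effect; nearly all actives have a fitted effect of over 50% in size; the assay follows cell death caused by Vpr and the record does not say whether a fall means rescue or toxicity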
#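 Fission yeast strain RE007, carrying one chromosomally integrated HIV-1 vpr copy, was seeded at OD 0.01 in PMG+AL medium with 23 nL pinned compound. After 24 h at 30 °C and 99% humidity, viability was read by BacTiter-Glo luminescence.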
# StopGo reporter = FMDV 2A StopGo reporter, luciferase signal. human cells with a luciferase reporter of 2A StopGo recoding; control for the full effect not named in the record. Potency, µM (series often up to 57.9 µM), without a hit: at the highest dose signal change, negative = less light. 410,000 compounds, 1.2% hits; active = well fitted falling curve with a large enough effect; inconclusive = small, poorly fitted or top-dose-only effect; inactive = no such curve, though single readings can be large or run the other way; tested in HEK293T cells; note: % is set by controls: 0 for no effect and ±100 for the full control effect; nearly all actives have a fitted effect of over 45% in size; luciferase light after 4 h
# Lassa entry inh = Lassa virus entry inhibition; Lassa virus pseudotype entry inhibition, cell reporter; control for the full effect not named in the record; Potency, µM (highest dose often 37.9 µM), inactives show at the highest dose activity change, negative = inhibition, actives largely listed as inhibitors; AID 540256; 300,000 compounds, 1.2% hits; active means well fitted inhibition curve with a large enough effect; inconclusive means small, poorly fitted or top-dose-only effect, or effect the other way; inactive means flat fitted curve, though single readings scatter; tested in HEK293 cells; note: % is set by controls: 0 for no effect and ±100 for the full control effect; nearly all actives have a fitted effect of over 50% in size; luciferase read-out
# SARS PLpro yeast = inhibitors of SARS-CoV papain-like protease in yeast; S. cerevisiae expressing SARS-CoV PLpro, growth rescue; control for the full effect not named in the record; Potency, µM (top dose mostly 32.9 µM), for inactives: at the top dose activity, positive = growth rescue; 330,000 compounds, 0.19% hits; AID 485353; active means well fitted rising curve with a large enough effect; inconclusive means small, poorly fitted or top-dose-only effect; inactive means no such curve, though single readings can be large or run the other way; note: 0% is about no effect; nearly all actives have a fitted effect of over 55% in size; growth read by luminescence after 48 h
# Active calls of the source: *; ? = inconclusive; . = no result given; [ ] = remark or other dose. Unless noted, calls come from the whole dose curve; as a rule, active = well fitted curve in the direction sought with a large enough effect; inconclusive = small, poorly fitted or top-dose-only effect, or another doubt; inactive = no such curve, though single readings can be large; an effect the other way counts as inactive or inconclusive. Potency is the fitted concentration of half-maximal effect.
SMILES,Cruzain inh noDet,NS1 function inh,Marburg entry inh,Cruzain Triton,RE007 growth inh,StopGo reporter,Lassa entry inh,SARS PLpro yeast
COCCCn1c(=N)c(C(=O)NC2CCCCC2)cc2c(=O)n3cc(C)ccc3nc21,11%,.,-2%[46.1 µM],-1.9%,.,-2%,28%[46.1 µM],.
Cn1nc(C(=O)NCCc2ccc(Cl)cc2)c2c1-c1ccccc1SC2,7%,.,13%[46.1 µM],-4.2%,.,8%,18%[46.1 µM],.
CCNC(=O)CNC(=O)c1nn(Cc2ccccc2)c(=O)c2ccccc12,.,0%,20%[46.1 µM],.,5%,10%,16%[46.1 µM],0%
O=C(CN(c1ccccc1Cl)S(=O)(=O)c1ccccc1)N/N=C/c1ccccc1C(=O)O,.,.,1%[46.1 µM],.,6%,7%,0%,-1%
Cc1cc(OCC(=O)Nc2ccccn2)c2c(C)cc(=O)oc2c1,.,12%,0%[46.1 µM],.,5%,1%,20%[46.1 µM],-6%
O=S(=O)(c1ccc(Cl)cc1)N1CCC(c2nc3ccccc3[nH]2)CC1,.,3%,-2%[46.1 µM],.,-15%,-25%,-13%,0%
CCOC(=O)c1sc2ncn(CC(=O)N(CC)CC)c(=O)c2c1C,2%,-15%,?,1.7%,-4%,.,-2%,9%
O=C(NCCS(=O)(=O)N1CCN(c2cccc(Cl)c2)CC1)c1ccco1,.,.,5%,.,18%,-5%,-6%,-4%
C/C(CCc1oc2c(Br)cc(Br)cc2c1-c1ccc(C)o1)=N\O,-16%,-3%,-12%,-6.6%,-15%,.,-3%,-60%
O=C(COC(=O)c1n[nH]c2ccccc12)Nc1ccccc1F,.,.,10%,.,0%,90%[activator],19%,1%
Cc1ccc(OCC(=O)NNC(=O)C2CSC3(C)CCC(=O)N23)cc1 (stereo not given),.,.,?,.,-1%,0%,-2%,-4%
CC(C)CCN(C(=O)c1csnn1)C(C(=O)NC1CCCC1)c1ccc(F)cc1 (stereo not given),.,2%,?,.,-14%,16%,?,1%
CC(C)NC(=O)Cn1nnc(-c2cccc(NC(=O)c3ccccc3F)c2)n1,-3%,-4%,?,1.4%,-6%,-14%,-11%,11%
COc1cc(/C=N/Nc2nc3ccccc3o2)cc(OC)c1O,3%,-79%,-1%,-3.5%,-7%[3.69 µM],30%[activator],13%,-34%
CCOC(=O)C1CCN(c2c(N3CCCCCC3)c(=O)c2=O)CC1,-7%,-4%,12%,-3.0%,-5%,-26%,2%,3%
Cc1cccc(-c2nnc(SCCC(=O)O)o2)c1,-2%,.,?,0.9%,.,?,1.3µM*,.
O=C(O)C1CCCCC1C(=O)NCCCn1ccnc1 (stereo not given),3%,-3%,-3%,2.2%,6%,14%,-8%,9%
COC(=O)c1ccc(CN2CCN(CC(C)C)C(CCO)C2)cc1 (stereo not given),.,9%,.,.,-10%,-5%,.,6%
COc1ccc(Cn2c(C(=O)O)c(CNC3CCCC3)c3ccc(C)cc32)cc1,-4%,.,.,-3.4%,.,2%,15%[46.1 µM],.
COc1ccc(C(C#N)Nc2ccccc2C)cc1 (stereo not given),-2%,?,17%,3.8%,-1%[3.69 µM],19%,17%,1%
CCOC(=O)N1CCN(C(=O)CNC(=O)Cc2ccc(Cl)cc2)CC1,-3%,-2%,6%,0.7%,-12%,-17%,3%,-2%
Cc1cc(/C(N)=N/OC(=O)Nc2cccc(C(F)(F)F)c2)no1,.,1%,6%[46.1 µM],.,19%,27%,-5%,0%
COc1ccc(CN2CCSCC2)c(OC)c1C,.,-4%,-8%,.,2%,0%,-11%,8%
CCc1ccc(/C=N/NC(=O)c2cc(-c3ccccc3OC)nc3ccccc23)s1,-27%,-5%,?,-7.8%,3%,-10%,?,-3%
O=C(Cc1ccc(Cl)cc1)NCC(c1cccs1)S(=O)(=O)c1ccccc1 (stereo not given),-9%,.,.,-5.8%,.,-19%,?,.

# Ordered by heavy-atom count (low to high): part of the list above.
SMILES,Cruzain inh noDet,NS1 function inh,Marburg entry inh,Cruzain Triton,RE007 growth inh,StopGo reporter,Lassa entry inh,SARS PLpro yeast
O=C(COC(=O)c1n[nH]c2ccccc12)Nc1ccccc1F,.,.,10%,.,0%,90%[activator],19%,1%
CCOC(=O)C1CCN(c2c(N3CCCCCC3)c(=O)c2=O)CC1,-7%,-4%,12%,-3.0%,-5%,-26%,2%,3%
Cc1ccc(OCC(=O)NNC(=O)C2CSC3(C)CCC(=O)N23)cc1 (stereo not given),.,.,?,.,-1%,0%,-2%,-4%
O=C(NCCS(=O)(=O)N1CCN(c2cccc(Cl)c2)CC1)c1ccco1,.,.,5%,.,18%,-5%,-6%,-4%
CCNC(=O)CNC(=O)c1nn(Cc2ccccc2)c(=O)c2ccccc12,.,0%,20%[46.1 µM],.,5%,10%,16%[46.1 µM],0%
CC(C)CCN(C(=O)c1csnn1)C(C(=O)NC1CCCC1)c1ccc(F)cc1 (stereo not given),.,2%,?,.,-14%,16%,?,1%
CCc1ccc(/C=N/NC(=O)c2cc(-c3ccccc3OC)nc3ccccc23)s1,-27%,-5%,?,-7.8%,3%,-10%,?,-3%
COCCCn1c(=N)c(C(=O)NC2CCCCC2)cc2c(=O)n3cc(C)ccc3nc21,11%,.,-2%[46.1 µM],-1.9%,.,-2%,28%[46.1 µM],.
O=C(CN(c1ccccc1Cl)S(=O)(=O)c1ccccc1)N/N=C/c1ccccc1C(=O)O,.,.,1%[46.1 µM],.,6%,7%,0%,-1%

# More structures follow.
SMILES,Cruzain inh noDet,NS1 function inh,Marburg entry inh,Cruzain Triton,RE007 growth inh,StopGo reporter,Lassa entry inh,SARS PLpro yeast
Cn1cnnc1-c1cccc(NS(=O)(=O)c2ccc(N3CCCC3=O)cc2)c1,3%,-14%,?,-1.3%,-4%,.,12%,8%
N#CCCSc1ccccc1NC(=O)c1ccc(S(=O)(=O)N2CCCC2)cc1,0%,-14%,.,0.0%,.,.,.,-2%
O=C(Cc1ccccc1)OCCN1CCOCC1,-1%,11%,?,2.0%,.,-16%,9%,22%
O=C(OCc1nc2ccccc2s1)c1ccco1,.,.,?,.,-6%,72%[activator],?,0%
CCOC(=O)CCn1c(=S)n(CCC(=O)OCC)c2ccccc21,.,-58%,.,.,-10%,-3%,.,4%
O=C(CN(Cc1ccccc1)S(=O)(=O)c1ccc2c(c1)OCCO2)N/N=C/c1cccc(Br)c1,?,?,?,-1.4%,-3%,-15%,-13%,10%
Cc1ccccc1C(=O)Nc1cccc(C(=O)OCc2cc(=O)n3nc(C4CC4)sc3n2)c1,-6%,.,.,-0.2%,.,?,15%[46.1 µM],.
CCCN1CCN(c2nc(-c3cccs3)nc3ccccc23)CC1,4%,-17%,?,-7.2%,-1%,-15%,?,-2%
COc1ccc(C(=O)NCC(c2cccnc2)N2CCN(c3ccccc3F)CC2)cc1OC (stereo not given),-5%,.,.,-2.8%,.,-25%,16%[46.1 µM],.
COc1ccc(C2(C(=O)N3CCOCC3)CCOCC2)cc1OC,-3%,2%,2%,1.9%,0%,-24%,-9%,2%
O=C1NC(=O)N(Cc2ccccc2)C(=O)/C1=C/N1CCCc2ccccc21,-14%,12%,-20%,4.9%,7%,?,?,25%
CC(C)c1nnc(NC(=O)c2ccc(N3C(=O)CCC3=O)cc2)s1,-7%,-10%,-3%,-0.4%,10%,7%,-1%,7%
COc1ccc(C(=O)/C=C/c2ccsc2)cc1CSCC(=O)O,.,1%,-14%,.,-6%,?,-14%,-4%
COc1ccccc1CN1C(=O)c2ccccc2C1C(=O)NC1CCC(C)CC1 (stereo not given),.,.,-11%[46.1 µM],.,-13%,19%,?,-1%
CCOC(=O)c1cccc(NC(=O)C2CCCN(S(=O)(=O)c3c(C)n[nH]c3C)C2)c1 (stereo not given),16%,-19%,-2%[46.1 µM],-0.5%,19%,?,18%,3%
Cc1ccc(-c2nnc(N3CCN(C(=O)c4cccs4)CC3)c3ccccc23)cc1,.,-1%,.,.,-1%,?,.,-1%
O=C(CSc1ncn[nH]1)Nc1nsc(-c2ccccc2)n1,-2%,10%,1%,-1.4%,-5%,69%[activator],?,15%
CC1Cc2ccccc2N1C(=O)CSc1nnc(-c2ccccc2)c(-c2ccccc2)n1 (stereo not given),16µM*,?,?,-0.8%,7%,?,?,0%
Cc1ccc(NC(=O)CSc2nnc(C)n2-c2ccccc2)cc1,4%,2%[9.22 µM],-1%,0.3%,-2%,-12%,1%,14%
CC(=O)Nc1cccc(NC(=O)c2ccc3c(c2)CCN3S(=O)(=O)c2ccccc2)c1,.,6%,?,.,6%,-16%,-19%[46.1 µM],-6%
CCOC(=O)C1=C(C)N=c2s/c(=C\c3cccc(OCC(=O)O)c3)c(=O)n2C1c1ccccc1OC (stereo not given),.,2%,.,.,6%,?,.,-4%
COc1cccc(C2CC(c3ccccc3Cl)n3nnnc3N2)c1 (stereo not given),-19%,-3%,11%,-6.8%,2%,-2%,-10%,-12%
Cc1ccc(C(=O)COc2nc(C)cc(C)c2C#N)cc1,6%,3%,-26%,2.9%,8%,-13%,7%,-5%
Cn1c(NC(=O)c2cccnc2)nc2ccccc21,-9%,1%,?,-1.6%,13%,30%[activator],?,-19%
COc1ccc(NC(=O)CSC2=Nc3ccccc3C3=NC(Cc4ccccc4)C(=O)N23)cc1 (stereo not given),-7%,.,.,-3.1%,.,10%,-4%[46.1 µM],.
Cc1ccc(-c2nnc3n2N=C(c2ccccc2Br)CS3)cc1,-11%,-134%,?,-1.0%,-1%,-18%,?,-6%
Cc1cccc(OCc2nc(-c3cccnc3)no2)c1,-1%,-7%,4%,-4.3%,-24%,5%,?,5%

# Outcome played no part in choosing rows; about 4.6% have a hit in one of these screens.
